AmpC inh no det: Promiscuous and Specific Inhibitors of AmpC Beta-Lactamase (assay without detergent). actives 1.8% (n = 71,000). Potency, µM (titrated, usually from 28.7 µM), without a hit: top-dose activity change, negative = inhibition. P00811. AID 585, 2007. AmpC nitrocefin hydrolysis, absorbance 480 nm, no detergent; potencies from a single point are estimates; active = falling curve, for most hits resting on a single point; inconclusive = weak or doubtful change; inactive = flat or rising curve; also: % of control where 0% means no effect; about half of the hits show no inhibition at the top dose; a quarter of the inactives give rising signals
Target sequence (P00811 whole entry, looked up): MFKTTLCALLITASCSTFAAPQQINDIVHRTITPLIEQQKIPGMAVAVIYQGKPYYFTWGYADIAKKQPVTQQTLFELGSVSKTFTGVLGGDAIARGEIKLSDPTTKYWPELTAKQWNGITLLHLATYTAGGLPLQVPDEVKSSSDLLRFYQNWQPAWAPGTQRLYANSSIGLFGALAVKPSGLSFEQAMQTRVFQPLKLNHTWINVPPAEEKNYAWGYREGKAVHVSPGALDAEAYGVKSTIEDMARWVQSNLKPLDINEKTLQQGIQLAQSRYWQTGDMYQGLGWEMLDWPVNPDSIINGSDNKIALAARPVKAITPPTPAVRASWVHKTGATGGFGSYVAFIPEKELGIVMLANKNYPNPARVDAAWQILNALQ
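AmpC in 20 mM phosphate buffer pH 7.0 was preincubated 15 min at room temperature with compounds. Nitrocefin (800 uM stock) was then added and hydrolysis followed at 480 nm every 20 s for 4 min.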
Active calls of the source: *; ? = inconclusive; & = joins results of further samples; [ ] = dose if it differs, or a comment. Potency is read from the fitted curve at half-maximal effect. Some of the compounds tested; rates above refer to the full screens.

SMILES,AmpC inh no det
N#CC1=C(SCC(N)=O)NC(=O)CC1c1cccc2ccccc12 (stereo unspecified),11%
COc1ccc(CC(=O)N2CCN(c3ccccn3)CC2)cc1OC,13%
Cc1nc2c(C(=O)NCc3ccc4c(c3)OCO4)c[nH]n2c(=O)c1Cc1ccccc1F,-7%
COc1ccc2oc(=O)c(C(=O)N3CCN(c4ccc(F)cc4)CC3)cc2c1,44%
CC1=C(C(=O)N2CCOCC2)C(c2ccccc2F)C2=C(CC(C)(C)CC2=O)N1 (stereo unspecified),-4%
O=C1CCCC2=C1C(c1cccnc1)Nc1ccccc1N2 (stereo unspecified),0%
O=C(Nc1ccccc1)C1CCN(c2nccs2)CC1,-12%
C=C(C)CSc1nc(N)cc(=O)[nH]1,-7%
COc1ccc(C(=O)N2CCC3(CCN(C)CC3)CC2)cc1,110%
OC1(c2ccc(F)cc2)CC2CCC(C1)N2Cc1nnnn1C1CCCC1 (stereo unspecified),70%
COC(=O)Cn1c(CN2CCN(c3ccc(F)cc3)CC2)nc2c1c(=O)n(C)c(=O)n2C,146%
O=C(COc1ccc2ccccc2c1Br)N1CCN(c2ccccn2)CC1,64%
Cc1ncc(CSc2ccccc2N)c(CO)c1O,-4%[5.75 µM]
CC(=O)/C(C)=N\O,25%&-6%
COc1ccc(CCNC(=O)CN(c2ccc(OC)c(OC)c2)S(C)(=O)=O)cc1,19%
c1ccc(CNc2ncnc3nc[nH]c23)nc1,-8%
CS(=O)(=O)N1CCN(C(=O)c2cccnc2)CC1,-2%
CC(C)C[C@@H](CC(=O)N[C@@H](CCC(=O)O)CC(=O)O)NC(=O)[C@@H]1CNCC[C@H]1NC(=O)C[C@H](CCCN)NC(=O)C[C@H](Cc1ccccc1)NC(=O)[C@@H]1CCCC[C@H]1N,98%
Cc1ccc(S(=O)(=O)N2CCN(S(=O)(=O)N3CCCCC3)CC2)c(C)c1,22%
O=C(NCc1ccc2c(c1)OCO2)c1ccc2c(c1)C(=O)N(Cc1cccnc1)C2=O,39%

Six compounds out of the list, sorted by molar mass, high to low.
SMILES,AmpC inh no det
COC(=O)Cn1c(CN2CCN(c3ccc(F)cc3)CC2)nc2c1c(=O)n(C)c(=O)n2C,146%
O=C(NCc1ccc2c(c1)OCO2)c1ccc2c(c1)C(=O)N(Cc1cccnc1)C2=O,39%
COc1ccc(CC(=O)N2CCN(c3ccccn3)CC2)cc1OC,13%
O=C1CCCC2=C1C(c1cccnc1)Nc1ccccc1N2 (stereo unspecified),0%
CS(=O)(=O)N1CCN(C(=O)c2cccnc2)CC1,-2%
C=C(C)CSc1nc(N)cc(=O)[nH]1,-7%

Remaining list, next part:
SMILES,AmpC inh no det
Cc1ccc2[nH]c3c(=O)n(CCCN4CCOCC4)cnc3c2c1,8%
CCCc1cc2c(n1Cc1ccco1)C(C)C1CN(C(=O)c3ccccc3)C(C)(C(=O)OC)C21 (stereo unspecified),116%
O=C1OC(Nc2ccc3c(c2)OCO3)c2ccccc21 (stereo unspecified),-13%
Cc1cccc(NC(=O)c2cnc3scc(C)n3c2=O)c1,1%
COc1ccc(OC)c(S(=O)(=O)n2cccn2)c1,-13%
COc1ccc(CCNC(=O)c2ccccc2NC(=O)c2ccco2)cc1OC,5%
CCOC(=O)CSc1nc2c(c(=O)n1-c1ccc(OCC)cc1)SCC2,-1%
O=C(CN1CCC(n2nnc3ccccc32)CC1)Nc1ccc2c(c1)CCC2,72%
O=C1C=C2C=C[C@H]3C[C@@]2(O1)[C@H]1CCCCN31,-2%
CCOc1nc(C)ccc1-c1noc(-c2ccccc2OC)n1,75%
O=C(c1ccco1)N(Cc1ccco1)c1ccc(O)cc1,0%
Cc1nc2cncnc2n(Cc2ccc(F)cc2)c1=O,13%
Nn1c(SCc2cccc3ccccc23)nnc1-c1ccco1,0%
COc1cc(Cl)ccc1S(=O)(=O)n1nc(C)cc1C,18%
Cn1c(CCN2CCCCC2)nc2cc(NC(=O)Nc3ccccc3)ccc21,2%
COc1ccccc1N1CCN(CC(=O)Nc2c(C)n[nH]c2C)CC1,0%
Cn1c(CN2CCN(c3ccc(Cl)cc3)CC2)nc2ccccc21,75%
O=C(NCc1ccccc1)c1c(O)c2cccc3c2n(c1=O)CCC3,-1%
CC1(C)Cc2ccccc2-c2nnc(SCC(=O)Nc3ccc4c(c3)OCO4)n21,24%
COc1ccc(CCNc2oc(COc3ccccc3F)nc2C#N)cc1,10%
COC(=O)[C@@]1(Cc2ccc(F)cc2)[C@H]2c3cc(C(=O)N4CCCC4)n(Cc4ccccc4)c3C[C@H]2CN1C(=O)c1ccccc1,142%
NC(=O)CSCc1c(Cl)cccc1Cl,-11%
COc1ccccc1C(=O)C(O)c1ccccc1OC (stereo unspecified),7%
COC(=O)c1ccccc1NC(=O)c1cccc(NC(=O)c2ccc(Br)o2)c1C,4%
CC(C)COC(=O)c1ccc(NC(=O)C2C3C=CC(C3)C2C(=O)O)cc1 (stereo unspecified),2%
CCc1nc2c(cnn2-c2ccc(Cl)cc2)c(=O)n1-c1ccc(OC)cc1,73%
C[C@H](CCC(=O)NCC(=O)O)[C@H]1CC[C@H]2[C@H]3[C@@H](C[C@@H](O)[C@]12C)[C@]1(C)CC[C@H](O)C[C@@H]1C[C@@H]3O,57%[12.8 µM]
CCCS(=O)(=O)c1c(S(=O)(=O)CCC)c2ccccn2c1C(=O)OC,45%
Cc1nc2cnc(Oc3ccccc3)nc2n(-c2ccccc2)c1=O,9%
CN1CCN(c2ncc3nc(CCc4ccccc4)c(=O)n(C)c3n2)CC1,92%
CC(=O)Nc1ccc(S(=O)(=O)N2CCN=C2C)cc1,2%
O=C(c1noc2c1CCCCC2)N1CCN(C(c2ccccc2)c2ccccc2)CC1,49%
COc1ccc(S(=O)(=O)NCCc2ccc(F)cc2)cc1,-6%
CC1CCN(Cc2nc3c(c(=O)n(C)c(=O)n3C)n2Cc2c(F)cccc2Cl)CC1,36%
O=C(c1ccccc1)N1CCN(C2CC3CCC2C3)CC1 (stereo unspecified),0%
C/C(Nc1cccc(F)c1)=C(/C#N)C(N)=O,-2%
Cc1cc(NC(=O)c2ccc(Cn3nc(C)c(Br)c3C)o2)no1,30%
O=C(NCc1ccc2c(c1)OCO2)c1cc2c(s1)CS(=O)(=O)C2,13µM*[single pt active]
O=C(c1ccccc1)c1ccc(N2CCOCC2)c(F)c1,13%
CCOC(=O)Nc1cc(OCC)c(NC(=O)C2CC2)cc1OCC,-2%

A second format for 2 compounds above:
Molecule: Cc1nc2c(C(=O)NCc3ccc4c(c3)OCO4)c[nH]n2c(=O)c1Cc1ccccc1F
  AmpC inh no det: -7%

Molecule: COc1ccc2oc(=O)c(C(=O)N3CCN(c4ccc(F)cc4)CC3)cc2c1
  AmpC inh no det: 44%

(continued)
SMILES,AmpC inh no det
Cc1cc(NC(=O)COC(=O)C2CCCN2C(=O)c2cccs2)no1 (stereo unspecified),1%
N#CC12C(N)=NC3(OCCO3)C1(C#N)C1=C(CCC1)NC2c1ccccc1 (stereo unspecified),-4%
O=C(O)C1C2C=CC(O2)C1C(=O)NC1CCCc2ccccc21 (stereo unspecified),2%
CCN1CCN(S(=O)(=O)c2cc(C)c(OC)cc2C)CC1,-2%
CN(Cc1cc2ccccc2[nH]c1=O)S(C)(=O)=O,-2%
CC(=O)Nc1ccc(S(=O)(=O)NCC2CCC(C(=O)N3CCCCCC3)CC2)cc1 (stereo unspecified),32%
O=C(Cn1cnc2ccccc21)NCCCN1CCOCC1,-1%
CCn1cc(C(=O)N2CCn3c(nc4ccccc43)C2)c(=O)c2ccc(C)nc21,36%
O=C(CN1CCN(c2ccccn2)CC1)Nc1ccc2ccccc2c1,75%
CC(=O)Nc1ccc(N2CCOCC2)c(C(=O)Nc2cccc(C)c2)c1,2%
Nc1ncnc2nc(N3CCN(CCO)CC3)[nH]c12,4%[5.75 µM]
NC1=NC(c2cn(-c3ccccc3)nc2-c2cccs2)n2c(nc3ccccc32)N1 (stereo unspecified),51%
O=C1N2CCSC2=NC1(Nc1ccccn1)C(F)(F)F (stereo unspecified),-6%
CC12CCC(=O)N1C(C(=O)Nc1cccc3ccccc13)CS2 (stereo unspecified),4%
O=C(CSc1ccc2nnc(-c3ccncc3)n2n1)Nc1ccccc1F,-5%
C=C(C)[C@@H]1CC=C(C(=O)O)CC1,-4%
COC(=O)c1cc2occc2n1CC(=O)Nc1ccc(OC)c(OC)c1OC,28%
N#Cc1nc(COc2ccc(-c3ccccc3)cc2)oc1NCc1cccnc1,65%
COc1ccc(N2CCN(C(=O)COc3ccccc3)CC2)cc1,39%
N[C@H](CCCCCP(=O)(O)O)C(=O)O,8%&-2%&9%&-12%
O=C(NC1CCCCC1)C(c1ccccc1)N1CCCC1 (stereo unspecified),-4%
N#CC1=C(N)Oc2cc(O)ccc2C1c1ccccc1 (stereo unspecified),-7%
CC(C)OCP(=O)(c1ccccc1)c1ccccc1,13%
COC(=O)Nc1ccccc1C(=O)N1CCCCC1,-2%
CCOc1cc2c(cc1OCC)C(c1cc(OC)c(O)c(OC)c1)NCC2 (stereo unspecified),-2%
CCN1CCN(CC(=O)n2c3c(c4ccccc42)CC(C)CC3)CC1 (stereo unspecified),54%
O=C(c1ccc2nc(N3CCCCC3)sc2c1)N1CCN(c2ccccn2)CC1,73%
COc1cc(CC(=O)Nc2nccs2)cc(OC)c1OC,6%
COCC(=O)N1CCC2(CC1)CN(Cc1ccccc1OC)C2,0%
CC(C)[C@@H](CC(=O)N[C@@H]1CCCC[C@H]1C(=O)N[C@H](CC(=O)N[C@@H](CCC(=O)O)CC(=O)O)Cc1ccccc1)NC(=O)C[C@H](Cc1ccccc1)NC(=O)[C@@H]1CCCC[C@H]1N,138%
Cc1cccc([C@H](C)c2cnc[nH]2)c1C,4%
CN1CCN(c2nc3ccccc3c(=O)n2-c2ccccc2)CC1,11%
COc1ccc(OCCCC(=O)Nc2ccc3c(c2)OCCO3)cc1,1%
Cn1c(=O)c(-c2cc(F)cc(F)c2)nc2cnc(Nc3ccccc3)nc21,-1%
CCOC(=O)c1c(C)n(Cc2ccco2)c2ccc(OC)cc12,47%
COc1ccc(-n2c(Cn3nnc4ccccc43)nnc2SCC(=O)O)cc1,-5%
CC(C)c1nnc(N2C(=O)c3oc4ccccc4c(=O)c3C2c2ccco2)s1 (stereo unspecified),71%
Cc1ccc(C)c(NC(=O)CSc2nnc(-c3ccccc3)o2)c1,7%
CCC(CC)C(=O)NCCc1cc2ccc(C)cc2[nH]c1=O,3%
CCCCS(=O)(=O)c1sc2nc3c(cc2c1N)CCCC3,-17%
Cc1c(C(=O)OCC(=O)c2c(N)n(CC(C)C)c(=O)n(C)c2=O)oc2ccccc12,82%
CN(C)CCOC(=O)C1(c2ccccc2)CCOCC1,20%
Cc1ccc2nc3c(cc(C(=O)NCC4CCCO4)c(=N)n3CCCOC(C)C)c(=O)n2c1 (stereo unspecified),14%
COC(=O)c1cc(Br)c(=O)n(-c2ccc(C(C)=O)cc2)c1,-9%
O=C(O)c1cnn(-c2ccccc2)c1-n1cccc1,1%
CN(C)CCc1nc2ccccc2c(=O)n1-c1ccccc1,0%
Cc1nc(-c2ccccc2)cc(N2CCCC2)n1,10%
CCOC(=O)c1cnc(-n2nc(C)cc2C)nc1N(CC)CC,31%
COc1ccc(NC(=O)c2ccco2)c(NC(=O)Cc2cccs2)c1,6%
Cc1ccc(S(=O)(=O)NC(=O)Nc2cc(C)ccc2F)cc1,-3%
O=C(c1cc2nc3c(c(C(F)(F)F)n2n1)CCc1ccccc1-3)N1CCN2CCCC2C1 (stereo unspecified),?
COc1ccc(C(=O)N2CCC3(CC2)CN(Cc2ccc(C#N)cc2)C3)cc1,69%
O=C(Cn1cc2c(n1)CCCCC2)NCCCN1CCOCC1,-11%
COc1cc2c3c(c1OC)-c1cc(O)ccc1CC3NCC2 (stereo unspecified),-12%
CCN(CC)CCSc1nc(O)c(C(C)C)c(=O)[nH]1,7%
Cc1oc2cc(OCC(=O)O)ccc2c(=O)c1Oc1ccccc1,-17%
Cc1cc2c(=O)n(NC(N)=O)c(C)nc2s1,-11%
Cc1nnc(SCC(=O)N2CCN(S(=O)(=O)c3ccccc3)CC2)n1Cc1ccccc1,89%
O=C(C(c1ccccc1)c1ccccc1)N1CCN(Cc2ccncc2)CC1,66%
O=C(Nc1cnn(C23CC4CC(CC(C4)C2)C3)c1)c1cnn2c(C(F)(F)F)cc(-c3ccco3)nc12,63%

Other records
SMILES,AmpC inh no det
COc1ccc(NC(=O)C23CCC(C)(C(=O)O2)C3(C)C)cc1 (stereo unspecified),-9%
CCCS(=O)(=O)NCCc1cc2ccc(OC)cc2[nH]c1=O,8%
CC(=O)c1sc(NC(=O)CN2C(=O)CCC2=O)nc1C,-12%
CCOc1ccc(Cc2nc(C)c(CC(=O)N3CCCCC3)c(=O)[nH]2)cc1,-5%
CCCCn1c(SCC(=O)Nc2ccc3c(c2)OCO3)nc2c1c(=O)n(C)c(=O)n2C,84%
CN1C(=O)C(O)(C2COC(C)(C)CC2=O)c2ccccc21 (stereo unspecified),1%
COc1ccc2[nH]cc(CCNc3ccnc(-c4ccc5c(c4)OCO5)n3)c2c1,0%

Assay outcomes as filed in PubChem.
